Compound activity from PubChem.
TRPV1 PAM: potentiators of human vanilloid receptor 1 (TRPV1) | TRPV1-expressing cells, Fluo-8 calcium influx, capsaicin EC20 potentiation; host cell line not named in the record; control for the full effect not named in the record | potentiation, % at 8.33 µM | 0.02% of 320,000 active; active means potentiation above 80%; inconclusive means 30% to 80%; inactive means below 30%; note: 0% is about no effect
Target sequence (Q8NER1 whole entry, looked up): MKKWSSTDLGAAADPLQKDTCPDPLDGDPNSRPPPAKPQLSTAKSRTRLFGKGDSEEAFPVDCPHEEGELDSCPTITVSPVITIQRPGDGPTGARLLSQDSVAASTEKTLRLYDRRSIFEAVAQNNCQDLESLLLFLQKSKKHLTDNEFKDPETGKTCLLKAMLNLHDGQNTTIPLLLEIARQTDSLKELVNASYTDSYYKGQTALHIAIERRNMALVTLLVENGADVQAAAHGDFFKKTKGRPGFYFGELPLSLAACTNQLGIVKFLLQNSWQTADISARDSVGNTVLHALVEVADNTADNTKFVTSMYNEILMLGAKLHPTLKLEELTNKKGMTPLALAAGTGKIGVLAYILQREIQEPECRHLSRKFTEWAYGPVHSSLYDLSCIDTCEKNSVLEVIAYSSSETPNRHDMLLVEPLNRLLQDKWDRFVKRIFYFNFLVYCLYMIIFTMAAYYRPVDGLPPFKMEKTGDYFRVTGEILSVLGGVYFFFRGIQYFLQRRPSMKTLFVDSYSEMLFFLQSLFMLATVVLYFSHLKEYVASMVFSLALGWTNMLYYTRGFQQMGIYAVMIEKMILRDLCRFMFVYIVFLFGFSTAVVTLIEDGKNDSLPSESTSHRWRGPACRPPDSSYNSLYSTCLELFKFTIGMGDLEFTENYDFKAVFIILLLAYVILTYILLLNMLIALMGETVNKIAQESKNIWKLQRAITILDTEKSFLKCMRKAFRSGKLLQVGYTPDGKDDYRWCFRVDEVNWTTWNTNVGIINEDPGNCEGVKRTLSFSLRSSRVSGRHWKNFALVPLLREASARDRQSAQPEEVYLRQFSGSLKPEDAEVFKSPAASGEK
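Fluo-8 calcium influx in TRPV1-expressing cells, kinetic read (ex 480/em 520 nm). Compound added and read 3 min for agonist activity, followed by capsaicin at EC20 final and 2 min further read for enhancement.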
TRPML1 ag: human mucolipin-1 channel agonism; Q9GZU1; activation, % (test concentration not listed); 0.12% of 410,000 active; TRPML1-expressing cells, Ca2+ dye fluorescence, FDSS; host cell line not named in the record; reference of the full effect not given here; in the data active = activation above about 50%; inconclusive = about 30% to 50%; inactive = below about 30%; note: 0% is about no effect; the text of the record puts the active cut at 80%
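Calcium fluorescence on an FDSS kinetic reader gave the read-out. Tet-induced TRPML1-DL cells were plated overnight, dye-loaded (Ca8 with quencher, 45-90 min, room temperature, dark), then read 110 s after compound addition, and again 110 s after 4uM final 54-4 (EC80).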
ClpP mod: qHTS Assay for Activators of ClpP. ATP-dependent Clp protease proteolytic subunit (Bacillus subtilis (strain 168)), P80244. purified B. subtilis ClpP, FRET peptide cleavage, 20 min. Potency, µM (highest dose often 57.5 µM), inactives show top-dose activity change, negative = active. 1.9% of 340,000 active. AID 651965, 2013; active = well fitted falling curve with a large enough effect; inconclusive = small, poorly fitted or top-dose-only effect; inactive = no such curve, though single readings can be large or run the other way; note: potency is the fitted concentration of half-maximal effect; the source files actives as falling curves though it sought activators and does not explain the sign; nearly all actives have a fitted effect of over 65% in size; many hits overshoot -100%
Target sequence (P80244 whole entry, looked up): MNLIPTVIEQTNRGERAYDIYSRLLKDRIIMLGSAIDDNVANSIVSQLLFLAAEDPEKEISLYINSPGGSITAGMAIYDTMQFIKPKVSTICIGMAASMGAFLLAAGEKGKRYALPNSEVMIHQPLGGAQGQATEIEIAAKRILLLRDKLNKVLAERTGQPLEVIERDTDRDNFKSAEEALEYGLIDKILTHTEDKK
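ClpP 10 microg/mL final, pH 8 Tris/KCl buffer with BSA, glycerol, Tween-20; compound pinned in; FRET-FV substrate; RT 20 min; Ex320/Em430; ΔFRET vs ADEP 5.8 microM, DMSO, no enzyme.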
Menin-MLL FL inh: inhibitors of human menin-MLL interaction, wild-type MLL peptide | Fluorescence polarization, fluorescein-MLL peptide displacement from menin | FP activity change, % at 61.4 µM | 290,000 tested, under 10 active | AID 1766; inconclusive = falling polarisation curve, or a change in total fluorescence; inactive = total fluorescence flat and polarisation flat or rising; no compound was filed as active; the % refers to the polarisation; negative = inhibition;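 note: % of control where 0% means no effect; inhibitors lower the polarisation; unlabelled MLL peptide was the positive control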
Sfp PPTase inh: blocks B. subtilis Sfp PPTase activity | Q9F4F7 | Biochemical Sfp PPTase activity, qHTS | Potency, µM, for the others: max response, negative = inhibition, actives largely listed as inhibitors | 3.5% of 310,000 active; active = well fitted inhibition curve with a large enough effect; inconclusive = small, poorly fitted or top-dose-only effect, or another doubt; inactive = no such curve, though single readings can be large or run the other way;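 note: the enzyme is Sfp with the accession as filed and its product quenches rhodamine fluorescence; potency is the fitted concentration of half-maximal effect; 0% = enzyme reaction without inhibitor and -100% = no enzyme wells; top concentration of the series not given in the record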
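After 15 min at room temperature with compound, 15 nM Sfp received 5 uM rhodamine-CoA plus 12.5 uM BHQ-2-ybbR (50 mM Hepes pH 7.6, 10 mM MgCl2). Rate came from the fluorescence difference over 30 min, ex 525/em 598 nm.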
TRPML1 blocker: inhibitors of human TRPML1 channel. activity change, negative = inhibition, % (no concentration beside the values). 0.02% of 390,000 active. AID 624415. TRPML1-inducible cells, Ca2+ dye fluorescence, FDSS; stronger effect = lower value; inhibition of EC80 agonist-evoked calcium signal; in the data active means activity change below about -50%; inconclusive means about -30% to -50%; inactive means above about -30%;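 note: stimulus is agonist 54-4 at its EC80 concentration; % is set by controls: 0 for no effect and ±100 for the full control effect; compound concentration not given in the record; the text of the record puts the active cut at -80%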
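Tet-induced TRPML1-DL cells loaded with Ca8 no-wash calcium dye were read kinetically on FDSS. Compound addition was followed by EC80 agonist 54-4 (4 uM final); inhibition was read over 110 s.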
PINK1 modulator: PINK1 expression modulation | PINK1 immunofluorescence, high-content cytometry, 24 h | Potency, µM (doses to about 76.6 µM), for the others: at the highest dose activation (PINK1 increase), actives largely listed as activators | 0.2% of 410,000 active; active = well fitted activation curve with a large enough effect; inconclusive = small, poorly fitted or top-dose-only effect; inactive = flat fitted curve, though single readings scatter; cell line not stated here;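 note: potency is the fitted concentration of half-maximal effect; % of control where 0% means no effect; nearly all actives have a fitted effect of over 65% in size; a mitochondrial uncoupler was the plate control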
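Cells are seeded, rested 12 hours, then given compound at five concentrations or DMSO for 24 hours. After fixation, blocking and antibody staining, PINK1 amount and mitochondrial localization are scored; CCCP serves as control.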
The depositor's hits bear a star; ? = inconclusive; . = no result given; & = joins results of further samples; [ ] = dose if it differs, or a comment.

Short forms: A = TRPV1 PAM; B = TRPML1 ag; C = ClpP mod; D = Menin-MLL FL inh; E = Sfp PPTase inh; F = TRPML1 blocker; G = PINK1 modulator
O=C(O)C[C@H]1c2cc(C(F)(F)F)ccc2S(=O)(=O)N1C1CCCC1
  A: .	B: 0.2&-0.1	C: -0.8%&0.9%	D: .	E: .	F: -14	G: 0.1%

CCOc1cc2[nH]c(=O)n(CCCN3CCN(c4ccc(OC)cc4)CC3)c(=O)c2cc1OCC
  A: 13	B: -0.7	C: .	D: 1.5	E: 9%	F: 14	G: 0.9%

COc1ccc(CNC(=O)c2[nH]c(C)c(C(C)=O)c2C)cc1
  A: 11	B: -0.2	C: .	D: -0.5	E: 6%	F: -4	G: -1.6%

CCCCOc1ccc(CNC(=O)CN2CCSc3ccccc32)cc1
  A: .	B: 2.1	C: 1.3%	D: .	E: .	F: -17	G: 1.3%

O=C(COC(=O)Cc1ccc(S(=O)(=O)N2CCOCC2)s1)Nc1ccc(F)cc1F
  A: .	B: 1.2	C: 1.9%	D: .	E: .	F: -9	G: -1.1%

CCN(CC)CCn1c2c(c(SCC(=O)Nc3cc(C)ccc3C)nc1=O)CCC2
  A: -5	B: -0.1	C: 2.2%	D: .	E: .	F: 6	G: -0.2%

Clc1cccc(N2CCN(c3nnnn3-c3ccccc3)CC2)c1
  A: -4	B: .	C: -2.7%	D: 1.5	E: 12%	F: .	G: -0.1%

Cc1ccc2nc(-c3ccc(NC(=O)COc4ccc(Br)cc4Br)cc3)sc2c1
  A: .	B: 1.8	C: 3.9%	D: .	E: .	F: 17	G: 0.4%

O=C(COC(=O)/C=C/c1ccc([N+](=O)[O-])cc1)NCc1ccccc1
  A: -2	B: 0.5	C: -13%	D: 0.5	E: -20%	F: 20	G: 0.3%

CCOC(=O)c1ccc(NC(=O)c2nc(S(=O)(=O)Cc3ccccc3)ncc2Cl)cc1
  A: -1	B: 0.3&-0.1	C: -0.1%	D: .	E: ?	F: 12&-15	G: 2.9%&1.9%

NC(N)=NS(=O)(=O)c1ccc(NC(=S)NC(=O)/C=C/c2cccs2)cc1
  A: 3	B: -0.9	C: .	D: 4.4	E: 13%	F: -4	G: 4.9%

CC(C)(C)C(=O)Nc1cccc(C(=O)OCc2cc(=O)n3nc(C4CC4)sc3n2)c1
  A: .	B: -0.7	C: -0.2%	D: .	E: .	F: -18	G: -0.1%

Cc1ccc(C)c(-c2nnc(NC(=O)c3ccc([N+](=O)[O-])o3)o2)c1
  A: 16	B: 0.7	C: -11%	D: .	E: .	F: -7	G: -0.6%

O=C(c1ccc(F)cc1)N1CCCCC(Sc2nnnn2-c2ccccc2)C1=O (stereo not drawn)
  A: 6	B: 1.5	C: 28µM*	D: -0.8	E: -6%	F: -7	G: 1.3%

C=CCOc1ccc(CNc2ccc(NC(=O)CC(C)C)cc2)cc1OC
  A: 5	B: 1.2	C: 5.7%	D: 9.3	E: -5%	F: -8	G: -0.5%

CC1=NN(C(N)=S)C(=O)C1N=Nc1ccccc1C (stereo not drawn)
  A: -2	B: -1.3	C: 0.0%	D: 7.3	E: -3%	F: -7	G: -1.1%

COc1cc(/C=C2/C(=N)N3C(=NC2=O)SN=C3S(C)(=O)=O)ccc1OC(=O)c1ccco1
  A: 2	B: 0.6	C: -2.9%	D: ?	E: -15%	F: -3	G: 2.4%

CCSc1nnc(-c2ccc(S(=O)(=O)N3CCCC3)cc2)n1C
  A: 1	B: -0.4	C: ?	D: -2.4	E: 9%	F: -6	G: 2.3%[38.3 µM]

CCCCN1C(=O)CN(C2CCCCC2)C(=O)C1c1ccc(OC(C)C)c(OC)c1 (stereo not drawn)
  A: .	B: -0.4	C: 3.2%	D: .	E: .	F: -10	G: 4.7%

C[C@H]1COC(=O)[C@H](CC(=O)OC(C)(C)C)C/C=C\C[C@@H](CC(=O)N[C@H](CO)Cc2ccccc2)C(=O)N1
  A: .	B: 0.1	C: -2.7%	D: .	E: .	F: 11	G: 0.5%

C=CCOc1ccccc1CNc1ccccc1C
  A: 4	B: 2.2	C: -6.3%	D: 2.4	E: -6%	F: -3	G: 7.3%

COc1ccc(NC(=S)NC2CCCCCC2)c(OC)c1
  A: -8	B: -0.9	C: 0.8%	D: 2.0	E: -24%	F: -25	G: -1.2%

COc1ccc(CCN=C(C)c2cc(C)c(C)cc2O)cc1OC
  A: 13	B: 0.1	C: .	D: -1.0	E: 4%	F: 37	G: 2.3%

CN(Cc1ccco1)S(=O)(=O)c1nnc(NC(=O)c2cccc(Cl)c2)s1
  A: 12	B: 0.2&0.6	C: -5.2%&-9.3%	D: .	E: ?	F: -7&-24	G: 8.7%&-0.2%

c1ccc(CN2CCc3[nH]c4ccccc4c3C2)cc1
  A: .	B: 0.8	C: -11%	D: .	E: .	F: -11	G: 3.8%

O=C(NCCOc1ccccc1F)c1ccccc1SCc1ccc(F)cc1
  A: -4	B: 2.9	C: 1.6%	D: 12	E: 24%	F: 6	G: 3.9%

CCN(CC)S(=O)(=O)c1ccc(OC)c(NC(=S)Nc2cc(C)ccc2C)c1
  A: 0	B: .	C: .	D: 4.3	E: -10%	F: .	G: .

CCOC(=O)c1cc(NC(=O)N(C)C2CCCCC2)c(C)nc1C
  A: 8	B: 0.0	C: .	D: -7.7	E: 11%	F: 24	G: 1.4%

O=C(/C=C/c1cccs1)NCc1cccs1
  A: .	B: 1.4	C: 0.4%	D: .	E: .	F: ?	G: -0.4%

C=C1[C@H](C)CN[C@H]1CCO
  A: .	B: 0.1	C: -2.3%	D: .	E: .	F: 52	G: 1.3%

CCOC(=O)Cn1c(N)c(C(=O)OC)sc1=S
  A: 0	B: 0.3	C: 0.6%	D: -0.9	E: -24%	F: 4	G: 15%[38.3 µM]

Cc1ccc2nc(-c3ccc(Br)o3)oc(=O)c2c1
  A: -7	B: 0.6	C: ?	D: 1.6	E: 12%	F: 5	G: 28%[38.3 µM]

COC(=O)c1cc(NC(=O)c2ccccc2)c(=O)oc1C
  A: -3	B: 1.2	C: .	D: -4.6	E: -11%	F: 24	G: 1.0%

Nc1c(Cl)ncnc1Nc1ccc(C(=O)O)cc1
  A: .	B: 0.8	C: ?	D: .	E: .	F: -23	G: 1.2%

Cc1ccc(C(=O)NNC(=O)CCC(=O)NCc2ccccc2)cc1Br
  A: 26	B: -0.5	C: 0.8%	D: .	E: 17%	F: -3	G: 2.0%

Cn1c(=O)[nH]c(=O)c2c1nc(CN1CCOCC1)n2CCCO
  A: -9	B: 1.9	C: 0.8%	D: 1.4	E: 21%	F: -4	G: 4.5%[38.3 µM]

NC1=NC(=O)C(Cc2ccccc2)S1 (stereo not drawn)
  A: -2	B: -0.3	C: .	D: 1.1	E: 16%	F: 24	G: 0.2%

CC(=O)Nc1ccc(NC(=O)C2C3CCC(C3)C2C(=O)O)cc1 (stereo not drawn)
  A: 1	B: 0.0	C: -1.6%	D: 4.8	E: ?	F: -12	G: -0.9%

Cn1c(SCc2nc3ccccc3s2)nnc1-c1ccc2c(c1)OCO2
  A: -1	B: -0.1	C: -15%	D: 5.2	E: 14µM*	F: -7	G: -7.9%[38.3 µM]

COc1ccc(C2CCCN2C(=S)Nc2cccc(C)c2C)cc1OC (stereo not drawn)
  A: -4	B: -0.4	C: .	D: 1.9	E: 1%	F: 4	G: 2.4%

CC(C)Nc1ncnc2c1cnn2Cc1ccccc1Cl
  A: -18	B: 1.4	C: -2.9%	D: -0.5	E: 9%	F: -11	G: 2.7%

CSc1ccc(S(=O)(=O)NCCSc2ccccn2)cc1
  A: -8	B: 0.0	C: -0.6%	D: -0.8	E: 11%	F: 23	G: -0.1%[38.3 µM]

O=C(Cn1cnc2c(NCc3ccccc3)ncnc21)NCc1ccccn1
  A: .	B: -0.5	C: -0.3%	D: .	E: .	F: -6	G: 1.8%

O=C(CN(c1ccc(Cl)cc1)S(=O)(=O)c1ccc(Cl)c([N+](=O)[O-])c1)NCCc1ccc(F)cc1
  A: 8	B: 0.9	C: 0.3%	D: 3.9	E: 2%	F: -7	G: 0.2%

O=C(Nc1nnc(-c2ccco2)o1)C1CC1
  A: 3	B: -0.3	C: 0.7%	D: -3.3	E: -26%	F: -10	G: -0.6%

COc1ccc(OC)c(CCNC(=O)Cn2ccc3cc(S(=O)(=O)N4CCCC4)ccc32)c1
  A: 8	B: 0.8	C: -3.6%	D: 0.4	E: 2%	F: -13	G: 0.8%

CCOC(=O)c1ccc(NC(=O)c2ncn3c2C(=O)NC[C@@H]3C)cc1
  A: .	B: 0.1	C: -0.1%	D: .	E: .	F: -5	G: 1.6%

COCCCNc1ncnc2nc[nH]c12
  A: -1	B: -0.6	C: 1.7%	D: -0.7	E: 19%	F: 2	G: 2.3%

O=C(c1ccc(F)cc1F)N1CCCC(c2nc(-c3cccs3)no2)C1 (stereo not drawn)
  A: -4	B: 3.3	C: .	D: 0.1	E: 2%	F: -12	G: -2.0%

Cc1ccc(Oc2ncccc2C(=O)NC2CCSC2=O)cc1 (stereo not drawn)
  A: 16	B: -0.3	C: .	D: -1.3	E: 12%	F: 18	G: -0.4%

CCCCCCCCN1C(=O)[C@H](CC(=O)N2CCCC2)C[C@@]2(C(=O)OC)CCCCC=C12
  A: .	B: -0.8	C: 2.4%	D: .	E: .	F: .	G: 2.5%

Ordered by formula weight (falling): part of the list above.
Short forms: A = TRPV1 PAM; B = TRPML1 ag; C = ClpP mod; D = Menin-MLL FL inh; E = Sfp PPTase inh; F = TRPML1 blocker; G = PINK1 modulator
O=C(CN(c1ccc(Cl)cc1)S(=O)(=O)c1ccc(Cl)c([N+](=O)[O-])c1)NCCc1ccc(F)cc1
  A: 8	B: 0.9	C: 0.3%	D: 3.9	E: 2%	F: -7	G: 0.2%

O=C(NCCOc1ccccc1F)c1ccccc1SCc1ccc(F)cc1
  A: -4	B: 2.9	C: 1.6%	D: 12	E: 24%	F: 6	G: 3.9%

O=C(Cn1cnc2c(NCc3ccccc3)ncnc21)NCc1ccccn1
  A: .	B: -0.5	C: -0.3%	D: .	E: .	F: -6	G: 1.8%

CCOC(=O)c1ccc(NC(=O)c2ncn3c2C(=O)NC[C@@H]3C)cc1
  A: .	B: 0.1	C: -0.1%	D: .	E: .	F: -5	G: 1.6%
